From PubChem
NS1 function inh: influenza NS1 inhibition | S. cerevisiae slowed by influenza A NS1, growth recovery by OD600 | Potency, µM (titrated, usually from 46.1 µM), for the others: top-dose activity, positive = more growth | 270,000 tested, 0.4% active | AID 2326; active means well fitted rising curve with a large enough effect; inconclusive means small, poorly fitted or top-dose-only effect; inactive means no such curve, though single readings can be large or run the other way; also: nearly all actives have a fitted effect of over 50% in size
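Read-out: OD600 growth recovery of NS1-expressing budding yeast. Cells grown overnight at 30C in -URA glucose medium, washed, resuspended and diluted 1:100 in 2% galactose assay medium, pH 6.0. Same strain lacking NS1 served as positive control.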
LASV entry inh: blocks Lassa virus binding to or entry into cells; Lassa virus pseudotype entry inhibition, cell reporter; control for the full effect not named in the record; Potency, µM (doses to about 37.9 µM), without a hit: top-dose activity change, negative = inhibition, actives largely listed as inhibitors; 300,000 tested, 1.2% active; active means well fitted inhibition curve with a large enough effect; inconclusive means small, poorly fitted or top-dose-only effect, or effect the other way; inactive means flat fitted curve, though single readings scatter; tested in HEK293 cells; also: % is scaled to controls: 0 for no effect and ±100 for the full control effect; nearly all actives have a fitted effect of over 50% in size; luciferase read-out
Cruzain inh noDet: cruzain (T. cruzi) inhibition without detergent; P25779; purified cruzain, Z-FR-AMC fluorescence, no detergent; Potency, µM, for inactives: max response, negative = inhibition, actives largely listed as inhibitors; 200,000 tested, 2.3% active;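 also: plate controls were enzyme without inhibitor for no effect and buffer without enzyme for full effect; nearly all actives have a fitted effect of over 40% in size; top concentration of the series not given in the record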
Target sequence (P25779 123-467 limits assumed): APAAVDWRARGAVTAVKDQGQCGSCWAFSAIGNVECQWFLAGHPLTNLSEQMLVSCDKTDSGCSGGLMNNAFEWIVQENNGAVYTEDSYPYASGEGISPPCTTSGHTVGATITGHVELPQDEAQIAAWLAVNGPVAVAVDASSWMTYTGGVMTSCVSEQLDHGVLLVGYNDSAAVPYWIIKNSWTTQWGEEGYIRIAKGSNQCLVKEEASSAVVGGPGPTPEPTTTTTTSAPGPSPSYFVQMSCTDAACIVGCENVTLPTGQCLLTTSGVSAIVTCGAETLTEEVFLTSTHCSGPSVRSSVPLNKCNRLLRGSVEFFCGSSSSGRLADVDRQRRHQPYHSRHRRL
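Detergent-free condition (0.00005% Triton X-100) in acetate buffer pH 5.5 with DTT. 1.5 nM enzyme and compound were pre-mixed 15 min, then 2 uM Z-FR-AMC substrate added; reaction progress from fluorescence change between first and third reads (60 s).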
Cruzain Triton: blocks cruzain activity in presence of Triton detergent | P25779 | purified cruzain, Z-FR-AMC fluorescence, 0.01% Triton | Potency, µM, without a hit: max response, negative = inhibition, actives largely listed as inhibitors | 200,000 tested, 0.43% active;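 also: plate controls were neutral wells for no effect and buffer without enzyme for full effect; nearly all actives have a fitted effect of over 40% in size; top concentration of the series not given in the record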
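Detergent-containing arm of a paired screen for aggregation-based inhibition: 0.01% Triton X-100 present. Cruzain at 1.5 nM cleaved 2 uM Z-FR-AMC at pH 5.5 with 5 mM DTT; AMC fluorescence gain over 60 s measured activity.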
SARS PLP yeast: inhibitors of SARS-CoV papain-like protease in yeast. 330,000 tested, 0.19% active. Potency, µM (highest dose often 32.9 µM), without a hit: top-dose activity, positive = growth rescue. AID 485353. S. cerevisiae expressing SARS-CoV PLpro, growth rescue; control for the full effect not named in the record; active means well fitted rising curve with a large enough effect; inconclusive means small, poorly fitted or top-dose-only effect; inactive means no such curve, though single readings can be large or run the other way; also: 0% is about no effect; nearly all actives have a fitted effect of over 55% in size; growth read by luminescence after 48 h
MARV entry inh: inhibitors of Marburg virus binding or cell entry; Marburg virus pseudotyped entry inhibition, cell reporter; control for the full effect not named in the record; about a third of the inactives were read at about 46 µM; Potency, µM (series often up to 37.8 µM), for inactives: at the highest dose activity change, negative = inhibition, hits mostly inhibitors; 300,000 tested, 1.8% active; active = well fitted inhibition curve with a large enough effect; inconclusive = small, poorly fitted or top-dose-only effect, or effect the other way; inactive = flat fitted curve, though single readings scatter; tested in HEK293 cells; about a fifth of its hits are not listed in these tables; also: % is scaled to controls: 0 for no effect and ±100 for the full control effect; luciferase read-out
StopGo reporter: lowers the luciferase signal of an FMDV 2A StopGo reporter | human cells with a luciferase reporter of 2A StopGo recoding; control for the full effect not named in the record | Potency, µM (top dose mostly 57.9 µM), for the others: at the top dose signal change, negative = less light | 410,000 tested, 1.2% active; active = well fitted falling curve with a large enough effect; inconclusive = small, poorly fitted or top-dose-only effect; inactive = no such curve, though single readings can be large or run the other way; tested in HEK293T cells; also: % is scaled to controls: 0 for no effect and ±100 for the full control effect; nearly all actives have a fitted effect of over 45% in size; luciferase light after 4 h
RE007 growth inh: less growth of the S. pombe RE007 Vpr strain; S. pombe RE007 Vpr strain, BacTiter-Glo ATP luminescence, 24 h; control for the full effect not named in the record; Potency, µM (doses to about 92.2 µM), without a hit: top-dose activity change, negative = less growth; 360,000 tested, 0.21% active; active = well fitted falling curve with a large enough effect; inconclusive = small, poorly fitted or top-dose-only effect; inactive = no such curve, though single readings can be large or run the other way;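 also: % is scaled to controls: 0 for no effect and ±100 for the full control effect; nearly all actives have a fitted effect of over 50% in size; the assay follows cell death caused by Vpr and the record does not say whether a fall means rescue or toxicity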
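Fission yeast strain RE007, carrying one chromosomally integrated HIV-1 vpr copy, was seeded at OD 0.01 in PMG+AL medium with 23 nL pinned compound. After 24 h at 30 °C and 99% humidity, viability was read by BacTiter-Glo luminescence.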
Active calls of the source: *; u = inconclusive; x = not tested or not shown; & = joins results of further samples; [ ] = another dose, or the depositor's remark. Unless noted, calls follow the shape of the dose curve; as a rule, active = well fitted curve in the direction sought with a large enough effect; inconclusive = small, poorly fitted or top-dose-only effect, or another doubt; inactive = no such curve, though single readings can be large; an effect the other way counts as inactive or inconclusive. Potency is read from the fitted curve at half-maximal effect.

SMILES	NS1 function inh	LASV entry inh	Cruzain inh noDet	Cruzain Triton	SARS PLP yeast	MARV entry inh	StopGo reporter	RE007 growth inh
Cc1ccn(C(=O)c2cc3c(C)nn(-c4ccccc4)c3s2)n1	7%	2%	-2%	2.7%	3%	u	16%	28%
O=C(N/N=C/C=C\c1ccccc1[N+](=O)[O-])c1cccs1	-1%	-4%	-10%	-8.5%	-8%	16%	34%[activator]	5%
O=[N+]([O-])c1cc(Cl)cc(C2=NCCN2)c1	-11%	u	-8%	-1.2%	9%	u	4%	9%
Cc1ccc(C)c(NC(=O)CN(C)C(=O)c2cccc(S(=O)(=O)N3CCCC3)c2)c1	x	11%[46.1 µM]	x	x	-10%	6%	24%	-26%
Cc1ccc(NC(=S)N2CCN(S(=O)(=O)c3ccc(C)cc3)CC2)cc1	-3%	-2%	x	x	3%	u	25%	7%
COc1ccc(CNC(=O)CN(C(=O)c2snc(C(N)=O)c2N)c2cccc(F)c2)cc1	23%	4%	x	x	-2%	27%[46.1 µM]	5%	1%
Cc1ccc2cc(/C=N/NC(=O)CN3CCOCC3)c(Cl)nc2c1	4%	5%	-12%	6.3%	4%	10%	24%	25%
COc1cc(C(=O)OCC(=O)Nc2cc(S(=O)(=O)N3CCOCC3)ccc2C)ccc1OCC(C)C	x	1%	x	x	x	11%[46.1 µM]	-10%	0%
Cc1cc(C(=O)NNC(=O)c2sccc2C)c(C)o1	x	u	x	x	8%	8%	93%[activator]	2%
COc1ccccc1C(=O)Nc1nnc(SCC(=O)NCc2ccco2)s1	-1%	x	x	x	0%	x	3%	19%
COc1ccc(CSc2nc(C)[nH]c2[N+](=O)[O-])cc1[N+](=O)[O-]	1%	12%	x	x	0%	u	-13%	9%
COC(=O)C1=C(C)N(c2ccccc2)/C(=C/c2cccs2)C1=O	5%	u	2%	2.1%	-1%	-1%	-17%	13%
CCOC(=O)C(=O)NNc1ccccc1C	-2%	14%	15%	-0.7%	2%	9%	-15%	22%
O=C(NC(=S)Nc1cccc(O)c1)c1cncc(Br)c1	x	-22%	x	x	x	14%[46.1 µM]	22%	-28%
O=C(NCC(=O)N1CCN(c2ccccc2O)CC1)c1ccc2ccccc2c1	14%	-2%[46.1 µM]	x	x	u	3%[46.1 µM]	-19%	-8%
O=c1[nH]c(C2CCN(S(=O)(=O)c3ccccc3C(F)(F)F)CC2)nc2c1nnn2Cc1ccccc1	13%	x	x	x	-3%	u	-7%	7%
CC(C)CCN1C(=O)c2ccccc2C1C(=O)NCc1cccnc1 (stereo not given)	0%	-1%	4%	-9.0%	-5%	24%	-3%	14%
COc1ccc(NC(=O)c2ccco2)cc1NC(=O)COc1cccc(C)c1C	x	0%[46.1 µM]	-2%	-1.2%	x	u	u	x
CCN(CC)C(=S)Nc1ccc(Cl)c(Cl)c1	-4%	11%	-2%	-0.6%	u	-31%	48%[activator]	x
COCCn1c(=O)[nH]c2cc(C(=O)N3CCN(c4ccc(F)cc4)CC3)ccc2c1=O	x	5%[46.1 µM]	2%	-1.1%	x	18%[46.1 µM]	-3%	x
Cc1ccccc1NC(=O)CSc1nc2c(c(=O)n(C)c(=O)n2C)n1Cc1ccccc1F	x	u	3%	0.7%	x	2%[46.1 µM]	-24%	x
O=[N+]([O-])c1ccc(N2CCN(c3cccc(Cl)c3)CC2)cn1	-14%	u	x	x	2%	8.9µM*	-22%	-16%
Cc1ccc(CNC(=O)CCc2c(C)c3cc4c(C)coc4cc3oc2=O)cc1	x	17%[46.1 µM]	2%	2.1%	x	22%[46.1 µM]	-10%	x
O=C(NC(=S)Nc1ccccn1)c1ccc([N+](=O)[O-])cc1	1%	19%	2%	-2.3%	-1%	u	6%	3%
C=CCn1c(CNc2ccc(C)cc2)nnc1SCC(=O)N/N=C/c1ccc(O)cc1O	5%	u	-8%	-5.0%	u	-8%	-16%	-9%
COc1ccc(CNC(=O)Cc2c(C)c3c(cc(C)c4c(C)coc43)oc2=O)cc1	x	u	9%	-0.2%	x	7%[46.1 µM]	-3%	x
CC(=O)N1CCC2(CC1)CC(=O)c1cc(OCC(=O)NCc3ccco3)ccc1O2	5%	-1%	5%	-2.6%	5%	-2%	12%	5%
C#CC1(O)CCCC2C3CCC4CC(OC(C)=O)CCC4(C)C3C(=O)CC21C (stereo not given)	x	-8%[46.1 µM]	x	x	x	-28%[46.1 µM]	-22%	-2%
CCOc1ccc(-c2cc3nc(C4CCN(C(=O)OC(C)(C)C)CC4)c(C(=O)Nc4cccc(Cl)c4C)cn3n2)cc1	x	-9%[46.1 µM]	7.9µM*	-5.3%	x	u	-28%	x
CCCn1c2ccccc2c2cnn(CC(=O)NCc3ccc(OC)cc3)c(=O)c21	x	-1%[46.1 µM]	-3%	1.8%	x	x	-7%	x
NC(=O)CCN1CCCCC1	3%	-1%[46.1 µM]	x	x	1%	10%[46.1 µM]	10%	11%
COc1ccc(C(=O)/C=C/c2ccccc2F)c(OC(=O)c2ccc([N+](=O)[O-])cc2)c1	6%	u	-7%	1.1%	6%	u	5%	-11%
CCOC(=O)[C@@H]1[C@H]2COc3cc(OC)ccc3[C@H]2N2C(=O)N(c3ccc(C)cc3)C(=O)[C@@]12C	0%	x	x	x	-9%	x	-23%	-1%
Cc1ccn(CC(=O)N2CCCC(N3CCN(c4ccccc4F)CC3)C2)n1 (stereo not given)	5%	x	x	x	-4%	x	-19%	9%
O=c1cc(CSc2ccc(Cl)cc2)nc(N2CCCCC2)[nH]1	-2%	-12%	3%	-1.8%	6%	-27%[46.1 µM]	29%	1%
CCN1CCN(CCNC(=O)CCc2c(C)c3c(C)nn(-c4ccccc4)c3n(C)c2=O)CC1	-6%	u	x	x	-3%	u	-12%	-5%
CCOc1ccc2ncc(S(=O)(=O)c3ccccc3)c(N3CCN(c4ccc(OC)cc4)CC3)c2c1	12%	u	-24%	-2.7%	14%	u	-27%	-4%
Cc1ccc(CNS(=O)(=O)c2cc(C(=O)Nc3cccc(C(F)(F)F)c3)ccc2F)cc1	x	4%[46.1 µM]	-4%	-5.0%	x	x	-6%	x
COC(=O)C1SCC2C(=O)N(Cc3ccccc3)CC(=O)N21 (stereo not given)	x	14%[46.1 µM]	x	x	1%	10%[46.1 µM]	-17%	6%
COC(=O)c1ccccc1CON1C(=O)C(C)(C)N(OCc2ccccc2C(=O)OC)C(=O)C1(C)C	-89%	-19%	u	-3.4%	0%	-22%	-25%	11%
O=C(CSc1ccccc1)Nc1nnc(COc2ccc(Cl)cc2)s1	11%	u	1%	-16%	10%	1%&1%	u	-9%
CCCN1CCC(=O)N([C@H](CSc2ccc(Br)cc2)c2ccccc2)CC1	-7%	x	x	x	-1%	x	9%	-15%
CS(=O)(=O)N(CC(=O)NCc1ccco1)c1ccc2c(c1)OCO2	3%	-9%	-22%	-2.2%	-1%	5%	x	5%
O=C(Cn1nnc(-c2ccc3c(c2)OCO3)n1)NCc1ccccc1	-1%	3%	x	x	1%	14%	-4%	-11%
CCN(CC)S(=O)(=O)c1ccc(N=Nc2c(C)[nH]n(C(N)=S)c2=O)cc1	-4%	12%	-19%	-25%	u	u	29%	-13%
Cc1nnc(NC(=O)CCCN2C(=O)c3ccccc3C2=O)s1	-1%	5%	-5%	-3.3%	3%	11%	8%	-19%
CCCn1c(C)cc(C(=O)COc2ccc(S(=O)(=O)N(CC)CC)cc2[N+](=O)[O-])c1C	u	u	2%	-4.9%	-9%	u	-14%	1%
C=CCNC(=O)/C(=C\c1ccc([N+](=O)[O-])cc1)NC(C)=O	1%	-8%	2%	-1.8%	7%	7%[46.1 µM]	0%	3%
CCOC(=O)c1[nH]c(C=O)c(C(=O)OCC)c1C	-2%	u	x	x	13%	u	16%	0%
CCOc1ccc(S(=O)(=O)n2nc(C)cc2C)c2ccccc12	-9%	18%	-1%	-1.0%	-2%	-13%	35%[activator]	15%
The list goes on:
SMILES	NS1 function inh	LASV entry inh	Cruzain inh noDet	Cruzain Triton	SARS PLP yeast	MARV entry inh	StopGo reporter	RE007 growth inh
Cc1ccc(O)c(NC(=O)c2cc(C)no2)c1	-1%	-18%[46.1 µM]	x	x	-2%	9%[46.1 µM]	21%	-27%
Cc1ccc(Oc2nccc(-c3ccc(Cl)cc3)n2)cc1	17%	-10%	0%	-7.0%	2%	u	45%[activator]	-4%
CCOc1ccc(S(=O)(=O)c2cn(Cc3ccc(C)cc3)c3ccc(OC)cc3c2=O)cc1	x	u	2%	-7.0%	x	u	15%	x
CCNC(=O)CC1C(=O)N(c2ccccc2)C(=O)N1CCC(C)C (stereo not given)	-2%	-3%	-14%	6.4%	5%	-9%	-16%	0%
CC(C)C(=O)Nc1cccc(C(=O)Nc2nncs2)c1	7%	22%	-7%	1.6%	5%	5%	13%	20%
S=C1NC2(CCCCCC2)N=C1c1ccccc1	x	2%	x	x	11%	4%	11%	-25%
O=C(Nc1nccs1)c1ccc([N+](=O)[O-])cc1	1%	-18%	x	x	0%	8%[46.1 µM]	18%	-21%
C=CCNC(=O)CSc1nnc(-c2ccc(S(=O)(=O)N3CCCC3)cc2)n1C	10%	x	x	x	-1%	-11%[46.1 µM]	10%	0%
CC(=O)c1cc2c(cc1NC(=O)CCCC(=O)O)OCO2	4%	1%	3%	1.0%	4%	12%	-19%	-4%
O=C(COc1ccccc1[N+](=O)[O-])N(C1CCCCC1)C1CCS(=O)(=O)C1 (stereo not given)	x	-5%	x	x	2%	17%[46.1 µM]	0%	-5%
CCC(=O)OCCn1c(Br)nc2c1c(=O)[nH]c(=O)n2C	0%	14%	3%	0.7%	1%	2%	5%	16%
O=S(=O)(c1ccc(SCCO)nc1)N1CCCC1	-4%	u	-3%	4.7%	-1%	0%[46.1 µM]	11%	6%
CCOc1ccc(NC(=O)CN(C)C(=O)C2CC(=O)N(c3ccc4c(c3)OCCO4)C2)cc1OCC (stereo not given)	x	6%	x	x	1%	9%	-17%	-1%
O=C(Nc1cccc(NC(=O)c2ccco2)c1)c1ccc([N+](=O)[O-])cc1	x	-14%	x	x	4%	x	-16%	-1%
